Source: PubChem
D2 potentiator = Beta-Arrestin HTS for Positive Allosteric Modulators of the Human D2 Dopamine Receptor: Potentiators; DiscoveRx D2 beta-arrestin cells, luminescence, 90 min; 100% = 57 uM dopamine signal; AID 624464, 2012; D(2) dopamine receptor (Homo sapiens), P14416; hit rate 0.23% among 360,000; potentiation, % (no concentration beside the values); active = potentiation of 50% or more; inconclusive = 30% to 50%; inactive = 30% or less;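 further: compound concentration not given in the record; tested on top of an EC20 dose of dopamine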
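D2 cells co-treated with compound plus 50 nM dopamine (EC20) for 90 min at 37 deg C to detect potentiation. Beta-arrestin recruitment was read as enzyme-fragment luminescence after 1 h at ambient temperature. Full response was set by 57 uM dopamine.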
D2 ag = Beta-Arrestin HTS for Positive Allosteric Modulators of the Human D2 Dopamine Receptor: Agonists. D(2) dopamine receptor (Homo sapiens), P14416. DiscoveRx PathHunter D2 beta-arrestin, luminescence, 90 min; 100% = 57 uM dopamine signal. activation, % (concentration not given with the values). hit rate 0.084% among 360,000. AID 624465, 2012; in the data active = activation above about 40%; inconclusive = about 15% to 40%; inactive = below about 15%; further: compound concentration not given in the record; the text of the record calls up to 30% inactive
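DiscoveRx PathHunter D2 beta-arrestin cells (2,100/well) attached overnight, then compound-stimulated 90 min at 37 C in HBSS/10 mM HEPES/0.1% Tween-20 buffer; beta-galactosidase complementation read by luminescence after 1 h at ambient temperature. Dopamine 57 uM final (EC100) as control.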
Six1-Eya2 inh = qHTS Assay for Inhibitors of the Six1/Eya2 Interaction; AID 651725, 2012; Homeobox protein SIX1 (Homo sapiens) + Protein phosphatase EYA2 (Homo sapiens), …; AlphaScreen GST-Six1/His-Eya2 binding, biochemical; stronger effect = lower value; control for the full effect not named in the record; activity change, % (concentration not given with the values); hit rate 0.56% among 360,000; in the data active = activity change below about -65%; inconclusive = about -30% to -65%; inactive = above about -30%; further: on the % scale 0 is the no-effect control and ±100 the full control effect
Target sequence (O00167 whole entry, looked up): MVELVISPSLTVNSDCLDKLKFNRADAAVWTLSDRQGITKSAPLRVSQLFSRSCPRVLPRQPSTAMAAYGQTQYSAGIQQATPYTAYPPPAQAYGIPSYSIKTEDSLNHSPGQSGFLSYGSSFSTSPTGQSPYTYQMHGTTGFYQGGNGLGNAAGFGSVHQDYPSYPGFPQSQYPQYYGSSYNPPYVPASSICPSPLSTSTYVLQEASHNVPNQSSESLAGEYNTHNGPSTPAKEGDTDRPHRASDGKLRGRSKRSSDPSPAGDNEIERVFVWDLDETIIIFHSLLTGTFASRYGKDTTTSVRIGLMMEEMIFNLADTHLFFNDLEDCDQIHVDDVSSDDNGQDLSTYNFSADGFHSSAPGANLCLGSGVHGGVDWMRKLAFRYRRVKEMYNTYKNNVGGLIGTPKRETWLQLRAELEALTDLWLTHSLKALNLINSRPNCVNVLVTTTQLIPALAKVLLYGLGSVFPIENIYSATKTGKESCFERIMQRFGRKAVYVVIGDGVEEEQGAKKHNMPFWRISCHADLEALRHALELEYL
Target sequence (Q15475 whole entry, looked up): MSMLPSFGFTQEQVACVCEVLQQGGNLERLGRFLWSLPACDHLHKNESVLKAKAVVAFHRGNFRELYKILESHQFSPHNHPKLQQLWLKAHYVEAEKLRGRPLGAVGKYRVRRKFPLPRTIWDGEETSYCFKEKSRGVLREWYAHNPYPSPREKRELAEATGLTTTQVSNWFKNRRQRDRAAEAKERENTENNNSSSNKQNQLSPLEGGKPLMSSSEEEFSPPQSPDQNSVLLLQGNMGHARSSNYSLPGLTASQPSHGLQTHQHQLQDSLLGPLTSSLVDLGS
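Compounds are tested against tagged Six1 and Eya2 proteins bridged by glutathione donor and nickel acceptor beads; after a one-hour incubation at 37 °C without light, AlphaScreen emission is recorded.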
gsp ag = qHTS for Agonist of gsp, the Etiologic Mutation Responsible for Fibrous Dysplasia/McCune-Albright Syndrome: qHTS; hit rate 0.13% among 340,000; gsp mutant cells, cAMP HTRF, 30 min; control for the full effect not named in the record; AID 624287, 2012; Potency, µM (doses to about 76.9 µM), without a hit: top-dose activation (cAMP increase), usual class: activators; active = well fitted activation curve with a large enough effect; inconclusive = small, poorly fitted or top-dose-only effect, or another doubt; inactive = no such curve, though single readings can be large or run the other way; cell line not stated here;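 further: phosphodiesterase inhibitor Ro 20-1724 added with compounds to block cAMP breakdown; potency means the concentration at half of the fitted maximal effect; nearly all actives have a fitted effect of over 60% in size; about a fifth of the inactives were tested at one dose only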
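Cells stably selected in G418 were plated at 2000/well, grown 16-24 hr, then given compounds in DMSO with the PDE inhibitor […] (300 uM solution added) for 30 min at 37C; cAMP was read by HTRF.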
gsp antag = qHTS for Antagonists of gsp, the Etiologic Mutation Responsible for Fibrous Dysplasia/McCune-Albright Syndrome: qHTS; gsp-mutant cells, cAMP HTRF, 30 min; control for the full effect not named in the record; hit rate 0.4% among 340,000; Potency, µM (highest dose often 76.9 µM), inactives show top-dose activity change, negative = inhibition, usual class: inhibitors; active = falling curve of any shape with a large fitted effect; inconclusive = falling curve, mostly with a smaller effect; inactive = flat or rising curve; cell line not stated here;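 further: intracellular cAMP measured with PDE inhibitor Ro 20-1724 present during compound exposure; potency means the concentration at half of the fitted maximal effect; on the % scale 0 is the no-effect control and ±100 the full control effect; nearly all actives have a fitted effect of over 65% in size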
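Cells, 2000/well, grown 16–24 h in DMEM 10% FBS with 0.5 mg/ml G418, then compounds plus […] (300 uM addition stock), 30 min at 37C. cAMP read by HTRF (cAMP-d2 and anti-cAMP antibody-K in lysis buffer) after 30 min RT.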
CtBP-E1A inh = qHTS Assay for Inhibitors of the CtBP/E1A Interaction; activity change, % (concentration not given with the values); AlphaScreen GST-E1A/His-CtBP binding, 1536-well; stronger effect = lower value; control for the full effect not named in the record; hit rate 0.49% among 340,000; CtBP / adenovirus E1A interaction (AlphaScreen); in the data active means activity change below about -65%; inconclusive means about -30% to -65%; inactive means above about -30%; further: on the % scale 0 is the no-effect control and ±100 the full control effect
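Steps: dispense buffer (Tris pH 8.0, NaCl 300 mM, TCEP 1 mM, BSA, Tween 20); add 5X protein mix (GST-E1A, His-CtBP, 125 nM each); pin 23 nL compound; 2 h at 37 °C, dark; add 5X beads (50 ug/mL); 1 h; read.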
The depositor's hits bear a star; ? = inconclusive; nt = not tested or not shown; [ ] = dose if it differs, or a comment.

Sample of the layout, 5 compounds:
Below each SMILES – D2 potentiator | Six1-Eya2 inh | gsp antag | gsp ag | CtBP-E1A inh | D2 ag
C[C@H](CO)N1C[C@H](C)[C@H](CN(C)C(=O)Nc2ccccc2F)OCc2cnnn2CCCC1=O
    4 | 0 | nt | -23% | 6 | -7.6
NS(=O)(=O)c1ccc(NC(=S)N2CCC(Cc3ccccc3)CC2)cc1
    -1 | -16 | -9% | 33%[15.4 µM] | 2 | -3.0
CCC(C)Cn1cnc2c(SCc3ccccc3F)nc(N)nc21 (stereo not drawn)
    -9 | -4 | -7% | -28% | -3 | -0.5
Cc1cc(=O)oc2cc(OC(C)C(=O)NCCc3ccc(S(N)(=O)=O)cc3)ccc12 (stereo not drawn)
    -26 | 1 | -5% | 15% | -3 | -4.0
COc1ccc2c(=O)c(C(=O)NCCc3ccc(OC)c(OC)c3)c[nH]c2c1
    17 | -3 | -3% | -1% | -16 | 2.8

The whole of this part (from the top)
Below each SMILES – D2 potentiator | Six1-Eya2 inh | gsp antag | gsp ag | CtBP-E1A inh | D2 ag
C[C@H](CO)N1C[C@H](C)[C@H](CN(C)C(=O)Nc2ccccc2F)OCc2cnnn2CCCC1=O
    4 | 0 | nt | -23% | 6 | -7.6
NS(=O)(=O)c1ccc(NC(=S)N2CCC(Cc3ccccc3)CC2)cc1
    -1 | -16 | -9% | 33%[15.4 µM] | 2 | -3.0
CCC(C)Cn1cnc2c(SCc3ccccc3F)nc(N)nc21 (stereo not drawn)
    -9 | -4 | -7% | -28% | -3 | -0.5
Cc1cc(=O)oc2cc(OC(C)C(=O)NCCc3ccc(S(N)(=O)=O)cc3)ccc12 (stereo not drawn)
    -26 | 1 | -5% | 15% | -3 | -4.0
COc1ccc2c(=O)c(C(=O)NCCc3ccc(OC)c(OC)c3)c[nH]c2c1
    17 | -3 | -3% | -1% | -16 | 2.8
CCNC(=O)NC1c2ccccc2CSc2ccccc21 (stereo not drawn)
    -11 | 8 | 14% | ? | 1 | -4.0
CCOc1cc(C(N)=O)cc(Cl)c1OCc1ccccc1
    -6 | 2 | 3% | -28% | nt | -1.7
CN(c1ccccc1)S(=O)(=O)c1cccc(C(=O)NC2CCCC2)c1
    13 | -2 | 5% | -5% | 1 | 0.0
CC1(c2ccccc2)NC(=O)N(CC(=O)NC(=O)NCc2ccco2)C1=O (stereo not drawn)
    8 | -5 | 8% | -36%[inhibitor] | 0 | -1.5
CC(OC(=O)c1ccccn1)C(=O)Nc1nc(-c2ccc(F)c(F)c2)cs1 (stereo not drawn)
    -5 | -14 | -22% | 0% | -21 | 3.8
CN1C(=O)CSc2ccc(NC(=O)N3CCOCC3)cc21
    -8 | 2 | -18% | -2% | -5 | -0.8
COCCNC(=O)C(OC(=O)c1ccco1)c1ccccc1F (stereo not drawn)
    1 | 3 | -14% | -30%[15.4 µM] | 9 | -6.4
COc1ccccc1NS(=O)(=O)c1cc([N+](=O)[O-])ccc1N/N=C/c1c[nH]c2ccccc12
    -32 | -23 | 21% | 3% | -9 | -15
Cc1cccc(NC(=O)CSc2nc3c(c(=O)[nH]2)CCCC3)c1C
    -7 | 12 | -7% | -23% | 4 | -1.2
CC(C)[C@H](NC(=O)N1CC(=O)Nc2ccccc21)C(=O)N1CCC[C@@H]1C(=O)O
    -25 | 0 | 1% | nt | 4 | -3.7
O=C(NCCC1=CCCCC1)C1CCC(=O)N(Cc2cccc(C(F)(F)F)c2)C1 (stereo not drawn)
    4 | 0 | 3% | -9% | 4 | 0.2
CC(NC(=O)C1CC(=O)N(c2ccc3c(c2)OCCO3)C1)c1ccccc1 (stereo not drawn)
    -8 | 6 | nt | 27% | -21 | -3.9
COc1ccc(N(C(=O)c2snc(C(N)=O)c2N)C(CC(C)C)C(=O)NCC2CCCO2)cc1 (stereo not drawn)
    -4 | 10 | -1% | 0% | 5 | 5.6
Cc1cc(SCn2nnc3ccccc3c2=O)nc2ccccc12
    -8 | 7 | -1% | 17% | 0 | 1.2
COc1ccc(C2OC3=C(Nc4cc(C)c(C)cc4N3)C2=O)cc1 (stereo not drawn)
    -2 | 3 | ? | -23% | nt | 3.5
c1ccc(-c2oc3ncnc(NCCCN4CCOCC4)c3c2-c2ccccc2)cc1
    -5 | -11 | 4% | -1% | -9 | 0.6
CC1(C)C(C=C(Cl)Cl)C1C(=O)N/N=C/c1ccccc1F (stereo not drawn)
    -12 | -3 | -25% | -7% | 1 | -7.0
CCn1c(=O)c(C(=O)NNS(=O)(=O)c2ccc(C)cc2)c(O)c2ccccc21
    -3 | -14 | -5% | -6%[15.4 µM] | -4 | 3.7
CC(=O)N1N=C(c2cccs2)CC1c1ccc(C)o1 (stereo not drawn)
    -7 | -7 | -3% | -3%[15.4 µM] | 9 | 0.7
O=C1C=C(c2ccccc2)CC(c2ccc(F)cc2)C1 (stereo not drawn)
    -6 | 4 | -12% | 13% | 15 | 1.3
Cc1cccc(CN2CCN(C3CCCC3)C(CCO)C2)n1 (stereo not drawn)
    -18 | 0 | 13% | 4% | 0 | -2.0
CCN(c1ccccc1)S(=O)(=O)c1cccc(C(=O)NCC(c2ccc(OC)cc2)N2CCCCC2)c1 (stereo not drawn)
    -29 | -5 | nt | -68%[inhibitor] | 2 | -3.1
COc1ccccc1C#Cc1cnc2c(c1)C(=O)N([C@H](C)CO)C[C@@H](C)[C@@H](CN(C)C(=O)c1ccc3c(c1)OCO3)O2
    -7 | 7 | nt | -17% | -13 | -4.5
O=C(CSc1nnnn1C1CCCCC1)NCc1cccs1
    -5 | 10 | 1% | -48%[inhibitor] | nt | -3.4
O=C(c1cccc(N2CCCC2=O)c1)N1CCN(c2ccc(F)cc2)CC1
    -6 | 2 | 7% | 33% | 12 | -1.9
CSc1ccccc1NC(=O)C1(C)CCN1C(=O)Cc1ccccc1Cl (stereo not drawn)
    -4 | 2 | nt | nt | 7 | -4.0
CNC(=O)c1nnn(Cc2ccccc2)c1NC(=O)C(F)(F)F
    -3 | 9 | 11% | 1% | 11 | 0.5
CCn1c(SCC(=O)Nc2ccccc2N2CCOCC2)nnc1-c1ccccc1
    -16 | 4 | 4% | -3% | 1 | -2.3
Cc1cc(=O)oc(C)c1C(=O)NCCNC(=O)c1c(C)cc(=O)oc1C
    -11 | 7 | 1% | -33%[inhibitor] | 5 | -0.7
CC(=O)Nc1cccc(CP(=O)(c2ccccc2)c2ccccc2)c1
    -1 | 1 | 8% | 0%[15.4 µM] | -2 | -6.9
CCc1ccc(NC(=O)C(C)OC(=O)CCN2C(=O)C3CC=CCC3C2=O)cc1 (stereo not drawn)
    -3 | 2 | -7% | 13%[15.4 µM] | 2 | -3.4
C=CCn1c(-c2csc(-c3ccccc3)n2)n[nH]c1=S
    -15 | 3 | -5% | ? | -3 | -4.0
O=C(COC(=O)c1ccc(Br)o1)NCc1ccccc1Cl
    -2 | 4 | -1% | -36%[inhibitor] | 9 | -1.2
CCOC(=O)c1[nH]ncc1CN1CCCC(C(=O)c2ccc(C(C)(C)C)cc2)C1 (stereo not drawn)
    -18 | 0 | 10% | -20% | -2 | -0.8
NC(=O)CCc1nc2cc(C(F)(F)F)ccc2n(Cc2ccccc2)c1=O
    -5 | -6 | -2% | 17% | 5 | 2.2
CCCCN(CC)CCNC(=O)c1cc2c(=O)[nH]c3ccc(C)cc3c2s1
    -15 | -9 | 10% | 11%[15.4 µM] | ? | -4.0
CCOC(=O)c1c(C)[nH]c(C(=O)COC(=O)CNC(=O)c2ccc(Cl)cc2Cl)c1C
    -16 | 15 | -11% | -8% | 1 | -1.3
CC(=O)N1CC(C)Sc2ccc(S(=O)(=O)NCc3ccc(Cl)cc3)cc21 (stereo not drawn)
    1 | 1 | -8% | 22% | 5 | 5.8
CCOc1cc(NC(=S)NCc2ccco2)c(OCC)cc1NC(=O)c1ccco1
    -4 | -5 | -27% | ? | 10 | 1.0
O=C(CCc1ccccc1)Nc1ccccc1C(=O)N1CCOCC1
    9 | 8 | 9% | ? | -20 | 5.5
CC1Cc2cc(/C(O)=C3/C(=O)C(=O)N(CCCn4ccnc4)C3c3cccnc3)ccc2O1 (stereo not drawn)
    0 | -1 | 12% | ? | 2 | -1.5
CC(=O)c1cccc(NC(=O)/C(=C\c2ccco2)NC(=O)c2cccs2)c1
    3 | -1 | -4% | -16% | -9 | -2.6
COc1ccc(CNC(=O)C(c2ccncc2)N(C(=O)Cc2cccs2)c2cccnc2)cc1 (stereo not drawn)
    -1 | 4 | -4% | 14%[15.4 µM] | -3 | 1.1
O=C(O)/C=C/c1cccc(NC(=O)Nc2ccc([N+](=O)[O-])cc2)c1
    -5 | -2 | -2% | 3% | -1 | -5.7
CC(C)OCCCNCc1cccs1
    -8 | 4 | 4% | 18% | 1 | -3.7
O=C(O)Cc1c(-c2ccccc2Cl)c2cc(Br)ccc2[nH]c1=O
    -6 | 1 | 8% | ? | 2 | -2.1
O=C(COc1ccc(C(=O)c2ccccc2)cc1)NC1CCCCCC1
    -21 | -1 | ? | -29% | -1 | -2.5
COC(=O)CCC/C=C1/SCC(NC(=O)c2ccccc2)C1NC(C)=O (stereo not drawn)
    -5 | -3 | -19% | 6% | 12 | -3.1
COCCOc1ccc(C(F)(F)F)cc1Nc1nc2ccccc2o1
    0 | 7 | -32% | -16% | 11 | 1.3
NS(=O)(=O)c1cc(Cl)c(Cl)c(S(N)(=O)=O)c1
    4 | 3 | 7% | nt | -22 | -3.8
CN1C(=O)[C@@H]2[C@@H]3C[C@@H]([C@H]4ON=C(c5ccc(Cl)cc5)[C@@H]34)[C@@H]2C1=O
    18 | 3 | -4% | -22% | 4 | -0.4

Single values from the entries so far:
CC(NC(=O)C1CC(=O)N(c2ccc3c(c2)OCCO3)C1)c1ccccc1 (stereo not drawn) | D2 potentiator = -8
O=C(COc1ccc(C(=O)c2ccccc2)cc1)NC1CCCCCC1 | D2 potentiator = -21

Not a hit list; overall some 1.4% were active at least once.
